Vaccinia Venus: vaccinia inhibition (Venus reporter); Vaccinia virus Venus reporter expression, fluorescence; hit rate 0.46% among 330,000; Potency, µM (doses to about 36.5 µM), inactives show at the highest dose activity change, negative = inhibition, usual class: inhibitors; active means well fitted inhibition curve with a large enough effect; inconclusive means small, poorly fitted or top-dose-only effect; inactive means no such curve, though single readings can be large or run the other way; tested in A549 cells; note: nearly all actives have a fitted effect of over 30% in size; inactives centre near -10
VACV mCherry inh: vaccinia inhibition (mCherry reporter); Vaccinia virus mCherry reporter infection, fluorescence; about a quarter of the inactives have no number; hit rate 0.63% among 310,000; Potency, µM (top dose mostly 36.5 µM), for the others: at the highest dose activity change, negative = inhibition, most hits filed as inhibitors; active = well fitted inhibition curve with a large enough effect; inconclusive = small, poorly fitted or top-dose-only effect; inactive = no such curve, though single readings can be large or run the other way; tested in A549 cells; note: nearly all actives have a fitted effect of over 35% in size; inactives centre near -10
* hit, by the source's call; i = inactive; ? = inconclusive; nt = not tested or not shown; [ ] = dose if it differs, or a comment. % is set by controls: 0 for no effect and ±100 for the full control effect; potency is the fitted concentration of half-maximal effect.

compound	Vaccinia Venus	VACV mCherry inh
COc1ccccc1NC(=O)NCC(=O)Nc1c(C)cccc1C	-13%	-4%
CCCC(=O)n1nc(-c2ccco2)nc1SCc1ccccc1	-13%	-17%
Cc1ccccc1OCCn1c(C)nc2ccccc21	-26%	-13%
Cc1ccc2[nH]nc(C(=O)N3CCCC(C(=O)c4ccc(Cl)cc4)C3)c2c1 (centres undefined)	-12%	-4%
CCCCn1c(N)c(N(CC(C)C)C(=O)CCCc2nc3ccccc3s2)c(=O)[nH]c1=O	-7%	-14%
CCn1c(N)c(C(=O)NCc2cccnc2)sc1=S	-15%	nt
CC(C)=CCC/C(C)=C/CNC(=O)C[C@H]1C[C@H](C(=O)N2CCOCC2)[C@@]2(CCC3CCCC3)c3[nH]c4cc(-c5ccco5)ccc4c3CCN2C1=O	?	?
C=CCNC(=S)Nc1ccc(Br)cc1F	?	-8%
CC1CCC2(CC1)NC(=O)N(CC(=O)N1CCN(S(=O)(=O)c3ccc4c(c3)CCC4)CC1)C2=O (centres undefined)	-16%	i
Cc1ccc(/C(N)=N/OC(=O)c2cccs2)cc1	-30%	?
COc1cc(NC(=O)c2cccc3c2C(=O)N(Cc2cccnc2)C3)cc(OC)c1OC	4%	i
CCOC(=O)[C@@H]1[C@H]2COc3ccccc3[C@H]2N2C(=O)N(c3ccc(F)cc3)C(=O)[C@]12C	5%	i
CCC(NC(=O)CCCc1ccccc1)c1ccccc1 (centres undefined)	-9%	i
S=c1[nH]nc(-c2ccco2)n1/N=C/C(Cl)=C/c1ccccc1	-20%	-27%
COc1ccc(OC)c(NC(=O)CN2C(=O)CCc3cc(S(=O)(=O)N4CCCCC4)ccc32)c1	4%	1%
Cc1cc(C(=O)C(=O)NC(C)C)c(C)n1-c1ccc([N+](=O)[O-])cc1	-13%	-14%
CCOC(=O)c1ccc2ncc(C(=O)OCC)c(Nc3ccc(C)c(Br)c3)c2c1	6%	6%
COc1cccc(-c2ccc(SCC(=O)N3CCN(c4ccccc4)CC3)nn2)c1	-1%	-12%
CS(=O)(=O)N(CC(=O)N1CCCC1)c1cccc(F)c1	-4%	i
Cc1cccnc1NC(=O)CSc1nnc(COc2ccc(C(C)C)cc2)n1C	-22%	-5%
Cc1ccc(NC(=O)C2CCCN(c3ncccn3)C2)c(C)c1 (centres undefined)	0%	i
O=C(O)CSCc1c(F)cccc1Cl	-9%	i
COC(=O)[C@H](Cc1ccc(O)cc1)NC(=O)Cn1cnc(C(=O)Nc2ccc(C)c(C)c2)n1	-7%	i
COc1ccc(CCN2CCCn3c2nc2c3c(=O)n(Cc3ccccc3F)c(=O)n2C)cc1OC	-13%	-11%
CC(C)C(=O)Nc1ccc(C(=O)NNC(=O)C(c2ccccc2)c2ccccc2)cc1	-21%	-2%
O=C(NC(=S)Nc1cccc(NC(=O)c2ccccc2Cl)c1)c1cccs1	-18%	-10%
CCc1ccc(C(=O)NNC(=O)c2cccc(N3C(=O)CCC3=O)c2)cc1	3%	-11%
O=C(COc1ccc(Cl)cc1Cl)NNC(=S)NC(=O)c1ccco1	-10%	-13%
Oc1c(C(c2ccc(F)cc2)N2CCCC2)sc2nc(-c3ccco3)nn12 (centres undefined)	3%	4%
Cc1nn(CC(=O)NCc2ccc(N(C)C)cc2)c(=O)c2c(C)n(-c3ccc(Cl)cc3)nc12	?	-22%
O=C(Cc1ccc(-c2ccccc2)cc1)NCc1cccnc1	-12%	-14%
O=C(CSc1nnc(-c2ccco2)n1-c1ccccc1)NCc1ccc2c(c1)OCO2	-13%	-15%
CCOC(=O)C1CCN(C(=O)C2CCCN2S(=O)(=O)c2ccc(Cl)cc2)CC1 (centres undefined)	-10%	i
CCOC(=O)c1ccccc1NC(=O)Cn1c(=O)n(-c2cccc(C)c2)c(=O)c2c1c1cc(C)ccc1n2C	-4%	3%
CCOC(=O)C1CCCN(C(=O)CCc2ccccc2)C1 (centres undefined)	-7%	-12%
CC(=O)c1ccc(NC(=O)CSc2nccn2Cc2ccco2)cc1	-13%	0%
O=P(Oc1ccccc1)(Oc1ccccc1)C(Nc1ccccc1)c1ccccc1 (centres undefined)	?	?
O=C(Cc1ccccc1)N1O[C@H]2C=C[C@@H]1CC2	-14%	-25%
Cc1ccccc1OCCSc1nc(N(C)C)nc(N(C)C)n1	-13%	i
Cc1ccc(OCC(=O)Nc2ccc3nc(SCC(=O)N4CCOCC4)sc3c2)cc1	-13%	0%
Cc1cc(C)cc(NC(=O)c2cccc(NC3=NC4CS(=O)(=O)CC4S3)c2)c1 (centres undefined)	-16%	i
Cn1cc(Cl)c(-c2n[nH]c(=S)n2C2CCCCC2)n1	-2%	-8%
CCOC(=O)c1sc(NC(=O)CN2C(=O)c3cccc4cccc(c34)C2=O)nc1C	-3%	-3%
CC[C@]12c3[nH]c4ccccc4c3CCN1C(=O)C(CC(=O)NC/C=C(\C)CCC=C(C)C)C[C@@H]2C(=O)N1CCN(C(=O)C2CC2)CC1 (some centres undefined)	-30%	i
O=C(CSc1nccn1-c1ccc(F)cc1)Nc1cccc2ccccc12	-21%	-5%
CCN1CCN(c2cc(C)c3cc(NC(=O)c4ccc(Br)o4)ccc3n2)CC1	-27%	-7%
Cc1cc(C)c(S(C)(=O)=O)c(Oc2cccc(C(F)(F)F)c2)n1	-21%	-6%
CC(=O)O[C@@H]1[C@@H](OC(C)=O)[C@H](n2ccc3cc([N+](=O)[O-])ccc32)OC[C@@H]1OC(C)=O	-19%	i
CCC(Sc1nc(-c2ccccc2F)nc2c1Cc1c(CO)cnc(C)c1O2)C(=O)Nc1cc(C)ccc1C (centres undefined)	-7%	-1%
CN(C)c1ccc(C(c2ccc(N(C)C)cc2)C(O)c2ccccc2)cc1 (centres undefined)	-3%	-18%

Individual results from the entries so far.
`CC[C@]12c3[nH]c4ccccc4c3CCN1C(=O)C(CC(=O)NC/C=C(\C)CCC=C(C)C)C[C@@H]2C(=O)N1CCN(C(=O)C2CC2)CC1` (some centres undefined) in Vaccinia Venus has -30%
`CC(=O)c1ccc(NC(=O)CSc2nccn2Cc2ccco2)cc1` in VACV mCherry inh has 0%

Remaining list, next part
compound	Vaccinia Venus	VACV mCherry inh
CC(=O)Nc1ccc(S(=O)(=O)NCCC(=O)Nc2cccc(Cl)c2)cc1	-1%	0%
CCC(O)CNC(=O)c1cnn(-c2ncc3c(n2)-c2ccc(OC)cc2CC3)c1C1CC1 (centres undefined)	0%	-6%
O=C(NCCOc1ccccc1)c1ncn[nH]1	-12%	-13%
O=Cc1cn(CC(=O)N2CCCCC2)c2ccccc12	-3%	-11%
COc1cccc(-n2nnnc2SCC(=O)Nc2cccc(NC(C)=O)c2)c1	-14%	-4%
COC(=O)c1c(NC(=O)CN2CCOCC2)sc2c1CCC(C)C2 (centres undefined)	2%	nt
COC(=O)C(C(=O)OC)C(C[N+](=O)[O-])c1ccc(OC)c(OC)c1 (centres undefined)	-8%	-15%
O=C(NN1C(=O)c2ccccc2C1=O)c1ccc2c(c1)C(=O)N(CC1CCCO1)C2=O (centres undefined)	-2%	-2%
COc1ccc2[nH]cc(C3N4CC5(C)CN3CC(C)(C4)C5=O)c2c1 (centres undefined)	-8%	-16%
COc1ccc(-c2cn3nc(N4CCCC(C(=O)NCc5ccc(Cl)cc5)C4)sc3n2)cc1 (centres undefined)	?	?
C=CCNC(=O)C1CCC(=O)N1S(=O)(=O)c1ccc(C)cc1 (centres undefined)	-9%	-11%
NS(=O)(=O)c1cccnc1Nc1cccc(Cl)c1Cl	-21%	nt
O=C(NC(=S)NNC(=O)c1cnccn1)c1ccc(F)cc1	?	?
CC1(C)CSC(=NCCc2ccccc2)N1C(=O)c1ccc(C#N)cc1	-4%	-15%
CC(Oc1ccc(S(=O)(=O)N2CCCC2)cc1[N+](=O)[O-])C(=O)NC(C)c1ccccc1 (centres undefined)	-16%	-7%
Cc1ccc(NC(=S)N2CCC(NC(=O)c3ccc(C)cc3)CC2)cc1	-1%	65%[activator]
COc1cc(/C=N/NC(=O)C[n+]2ccccc2)cc(OC)c1OC	-10%	-16%
COC(=O)c1cn(NC(=O)Cc2ccc(OC)c(OC)c2)c(=O)c2ccccc12	-10%	-4%
CCc1nc2c(cnn2-c2ccc(C)cc2)c(=O)n1-c1ccc(C)cc1	-25%	-21%
CCC(C)NC(=O)c1ccc(-n2c(-c3ccccc3)cc3c2CCCC3)cc1 (centres undefined)	-16%	-15%
CCOC(=O)C1CCN(C(=O)C(C)c2ccc([N+](=O)[O-])cc2)CC1 (centres undefined)	-13%	0%
Cc1ccccc1OCCCCn1c(C2CC(=O)N(c3ccccc3Cl)C2)nc2ccccc21 (centres undefined)	-6%	-16%
O=C(CN1C(=O)CC(c2ccccc2)S(=O)(=O)c2ccccc21)N1CCCC1 (centres undefined)	4%	-3%
CCOC(=O)c1cc(C#N)c(SCC(=O)c2cc(C#N)c(SC)nc2C)[nH]c1=O	0%	-14%
CCOC(=O)N1CCC(NC(=O)C2CCCN(S(C)(=O)=O)C2)CC1 (centres undefined)	13%	-1%

Given as labelled records: entries from further up
molecule: CC(=O)Nc1ccc(S(=O)(=O)NCCC(=O)Nc2cccc(Cl)c2)cc1
- Vaccinia Venus: -1%
- VACV mCherry inh: 0%
molecule: CCN1CCN(c2cc(C)c3cc(NC(=O)c4ccc(Br)o4)ccc3n2)CC1
- Vaccinia Venus: -27%
- VACV mCherry inh: -7%
molecule: O=C(NC(=S)Nc1cccc(NC(=O)c2ccccc2Cl)c1)c1cccs1
- Vaccinia Venus: -18%
- VACV mCherry inh: -10%
molecule: CC1(C)CSC(=NCCc2ccccc2)N1C(=O)c1ccc(C#N)cc1
- Vaccinia Venus: -4%
- VACV mCherry inh: -15%

Continuation.
compound	Vaccinia Venus	VACV mCherry inh
CC[C@H](C)[C@H]1O[C@]2(C=C[C@@H]1C)C[C@@H]1C[C@@H](C/C=C(\C)[C@@H](O[C@H]3C[C@H](OC)[C@@H](O[C@H]4C[C@H](OC)[C@@H](O)[C@H](C)O4)[C@H](C)O3)[C@@H](C)/C=C/C=C3\CO[C@@H]4[C@H](O)C(C)=C[C@@H](C(=O)O1)[C@]34O)O2	-14%	-21%
COc1ccccc1CN(C)C(=O)c1cccc(S(=O)(=O)N2CCCc3ccccc32)c1	-14%	-28%
CN1CCN(C(=O)c2ccc3c(c2)N(Cc2c(F)cccc2Cl)C(=O)c2ccccc2S3)CC1	-16%	-11%
CC(=O)N1N=C(c2ccncc2)CC1c1ccccc1O (centres undefined)	-1%	3%
Cc1ccc(C2CC(=O)Oc3cc(O)ccc32)cc1 (centres undefined)	37%[activator]	16%
O=C(Cc1ccc([N+](=O)[O-])cc1)Nc1ccc(O)cc1C(=O)O	-12%	-18%
CCN(CC)C(=O)/C(=C/c1ccc(F)cc1)NC(C)=O	-1%	-9%
COc1ccc(S(=O)(=O)NC(=O)C2(C)CCN2C(=O)C2(c3ccccc3)CC2)cc1 (centres undefined)	-4%	20%
CCCCC[C@H](C)N1C[C@@H](COCc2ccccc2)Oc2cc(N3CCC[C@@H]3COC)ccc2S1(=O)=O	-1%	-2%
COCCc1nn2c(=O)cc(COC(=O)c3ccc(OC)c(OC)c3)nc2s1	-16%	-17%
N#Cc1cccc(S(=O)(=O)N2CCN(c3nc(-c4cccs4)nc4ccccc34)CC2)c1	-7%	-8%
COC(=O)C1=C(c2ccc(S(C)(=O)=O)cc2)C[C@@H]2CC[C@H]1N2C	2%	i
CC(C)c1ccc(NC2CCCN(C(=O)c3ccnc(Cl)c3)C2)cc1 (centres undefined)	-22%	-26%
Cc1ccnc(NC(=O)CCC(=O)N(CC(=O)NC2CCCCC2)c2ccc3c(c2)OCO3)c1	-18%	nt
CC1=CN2C(=N)/C(=C/c3ccc(Sc4ccc(Cl)cc4)o3)C(=O)N=C2S1	-20%	i
CCOC(=O)c1ccccc1NC(=O)c1nn(-c2ccc(OC)c(Cl)c2)c(=O)c2c1c1ccccc1n2C	9%	-3%
CCCCn1c(SCC(=O)Nc2oc(C)c3c(C)n[nH]c(=O)c23)nc2cc(S(N)(=O)=O)ccc21	-8%	-12%
CC(=O)c1ccc(S(=O)(=O)N2CCN(C(=O)CN3C(=O)NC4(CCCC4)C3=O)CC2)cc1	-4%	-18%
Cc1cc(F)ccc1S(=O)(=O)Nc1ccc(C(=O)N2CCCCC2)cc1	2%	i
COc1ccc(C(=O)O)cc1S(=O)(=O)N(C)CCc1cccnc1	12%	nt
C/C(=N\NC(=O)c1cccc(S(=O)(=O)Nc2ccc(C)cc2C)c1)c1ccncc1	-3%	i
CC(C)NC(=O)C1(C)CCN1C(=O)c1c(F)cccc1F (centres undefined)	17%	7%
Cc1ccc(N2CCN(C3=NC(=O)C(Cc4ccccc4)S3)CC2)cc1 (centres undefined)	-12%	-1%
COc1ccc([N+](=O)[O-])cc1NC(=O)CSc1nc(C)c(C)c(C)n1	0%	-11%
O=C(COc1ccc(Br)cc1)N1CCN(c2ccccc2)CC1	-18%	nt
CN=C(Cc1ccccc1)C1=C(O)CC(C)(C)CC1=O	-11%	-11%

High-throughput results from PubChem.
